KCNQ2 block – KCNQ2 potassium channel inhibitors, primary screen, cell-based, CHO-K1, FluxOR thallium flux, B-score (AID 2156); O88943; B-score at 10 µM; 310,000 compounds, 1.1% hits; 20 min; stronger effect = lower value; only compounds with negative scores are shown here; some inactives read as strong as hits;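 active = fluorescence ratio B-score at most minus 3 library SDs, with starting brightness B-score within 2 library SDs, cut at about -5.5 in these data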
Target sequence (O88943 whole entry, looked up): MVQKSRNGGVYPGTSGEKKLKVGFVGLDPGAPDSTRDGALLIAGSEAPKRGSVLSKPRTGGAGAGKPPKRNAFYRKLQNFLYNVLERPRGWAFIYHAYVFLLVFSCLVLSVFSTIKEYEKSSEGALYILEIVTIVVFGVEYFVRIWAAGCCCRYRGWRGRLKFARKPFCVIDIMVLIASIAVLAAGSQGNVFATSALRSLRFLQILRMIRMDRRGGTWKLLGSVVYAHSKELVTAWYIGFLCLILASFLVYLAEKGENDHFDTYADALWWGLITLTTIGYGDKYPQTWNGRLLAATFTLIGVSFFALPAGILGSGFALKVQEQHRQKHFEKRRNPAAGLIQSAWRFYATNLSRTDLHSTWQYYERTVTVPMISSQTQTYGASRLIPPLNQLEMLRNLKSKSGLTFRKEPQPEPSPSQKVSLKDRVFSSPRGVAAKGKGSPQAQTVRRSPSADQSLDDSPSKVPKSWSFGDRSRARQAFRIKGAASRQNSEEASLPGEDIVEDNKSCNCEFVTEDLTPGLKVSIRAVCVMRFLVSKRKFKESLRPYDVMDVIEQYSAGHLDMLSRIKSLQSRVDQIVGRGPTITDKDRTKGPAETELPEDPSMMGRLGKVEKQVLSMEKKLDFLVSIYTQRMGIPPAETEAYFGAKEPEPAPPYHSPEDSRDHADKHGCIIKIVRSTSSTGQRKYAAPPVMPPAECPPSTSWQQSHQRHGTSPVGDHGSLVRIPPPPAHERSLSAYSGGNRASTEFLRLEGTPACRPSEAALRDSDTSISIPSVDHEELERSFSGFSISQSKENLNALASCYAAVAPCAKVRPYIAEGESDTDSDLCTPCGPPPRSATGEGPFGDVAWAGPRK
KCNQ2 block baseline – second read-out of KCNQ2 block, no call of its own (marks repeat the call); B-score; measured here: initial fluorescence intensity artifact check;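 brightness before thallium and not channel activity; 0 = typical well and far values either way flag optical interference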
Starred values were filed as active, the others as inactive. An excerpt; count on the stated rates, not on these rows.

Cc1noc(/C=C/N(C)C)c1S(=O)(=O)N1CCCC(C(=O)NC(C)c2ccccc2)C1 (configuration not stated) was read as KCNQ2 block inactive and KCNQ2 block baseline 0.13.
`COc1cccc(NC(=O)CN2C(=O)COc3ccc(S(=O)(=O)N4CCOCC4)cc32)c1` gave KCNQ2 block inactive and KCNQ2 block baseline 0.14.
`CC(=O)c1nc(N2C(=O)CC(Cc3cc(C)cc(C)c3)C2=O)sc1C` (configuration not stated) gave KCNQ2 block inactive and KCNQ2 block baseline -1.2.
For O=C(COC(=O)c1ccccn1)Nc1cccnc1Cl the results were KCNQ2 block inactive and KCNQ2 block baseline -1.7.
`CC(=O)Nc1ccccc1NC(=O)C/C(C)=N/NC(=O)c1ccncc1` gave KCNQ2 block inactive and KCNQ2 block baseline -0.64.
`Nc1c(C(=O)Nc2ccccc2F)sc2nc(-c3ccco3)ccc12` gave KCNQ2 block inactive and KCNQ2 block baseline 0.87.
S=C(Nc1ccc(Cl)cc1)c1nc2ccccc2s1 was read as KCNQ2 block inactive and KCNQ2 block baseline -1.5.
CCCCC(=O)NNC(=O)c1c(O)c2ccccc2[nH]c1=O was read as KCNQ2 block inactive and KCNQ2 block baseline 0.9.
For O=C(CCC1CCCN(c2ncccn2)C1)NCc1ccccc1F (configuration not stated) the results were KCNQ2 block inactive and KCNQ2 block baseline -0.02.
For CCOc1ccc(N(C)Cc2cc(=O)oc3ccc(OCC)cc23)cc1 the results were KCNQ2 block inactive and KCNQ2 block baseline -0.38.
O=C(c1ccccc1)N1CCN(C(=O)c2ccc([N+](=O)[O-])cc2)CC1 was read as KCNQ2 block inactive and KCNQ2 block baseline -0.86.
Screening O=C(CSc1ncnc2c1oc1ccccc12)NCc1ccco1 returned KCNQ2 block inactive and KCNQ2 block baseline 0.75.

Two neighbouring compounds out of the list so far, quoted:
Cc1noc(/C=C/N(C)C)c1S(=O)(=O)N1CCCC(C(=O)NC(C)c2ccccc2)C1 (configuration not stated) was read as KCNQ2 block inactive and KCNQ2 block baseline 0.13.
`COc1cccc(NC(=O)CN2C(=O)COc3ccc(S(=O)(=O)N4CCOCC4)cc32)c1` gave KCNQ2 block inactive and KCNQ2 block baseline 0.14.

Next part
For CN=c1scc(C)n1/N=C/c1cc(Br)c(O)c(Br)c1 the results were KCNQ2 block inactive and KCNQ2 block baseline -1.1.
S=C(c1ccc(-c2ccc(Br)cc2)o1)N1CCCCC1 was read as KCNQ2 block inactive and KCNQ2 block baseline 0.56.
Cc1ccc2[nH]c(=O)c(CN(CCc3ccccc3)C(c3nnnn3Cc3ccco3)C(C)C)cc2c1 (configuration not stated) was read as KCNQ2 block inactive and KCNQ2 block baseline -0.08.
For CCN(CC)CC#CCOC(c1ccccc1)c1ccccc1 the results were KCNQ2 block inactive and KCNQ2 block baseline 1.
For COc1ccc(CCNC(=O)CSCc2c(F)cccc2Cl)cc1OC the results were KCNQ2 block inactive and KCNQ2 block baseline -0.25.
CC(C)c1ccc(N(CC(=O)NCc2ccco2)C(=O)CCC(=O)Nc2nccs2)cc1 was read as KCNQ2 block inactive and KCNQ2 block baseline 3.4.
Screening CCOC(=O)C1(CCCc2ccccc2)CCN(Cc2nccn2CC)CC1 returned KCNQ2 block inactive and KCNQ2 block baseline -1.4.
CCOc1ccccc1C(=O)NC1CC2CCCC(C1)N2Cc1ccccc1 (configuration not stated) was read as KCNQ2 block inactive and KCNQ2 block baseline -0.1.
`O=C(C1CCN(S(=O)(=O)c2cc(Cl)ccc2Cl)CC1)N1CCOCC1` gave KCNQ2 block inactive and KCNQ2 block baseline 1.5.
For O=C(O)CCCCCNS(=O)(=O)/C=C/c1ccccc1 the results were KCNQ2 block inactive and KCNQ2 block baseline 0.4.
`Cc1nc(-c2cccc(NC(=O)c3cc4cc(Br)ccc4oc3=O)c2)cs1` gave KCNQ2 block inactive and KCNQ2 block baseline 0.85.
`CCC1(C)Cc2ccccc2-c2nc(NCCCO)[nH]c(=O)c21` (configuration not stated) gave KCNQ2 block inactive and KCNQ2 block baseline -2.6.
`COC(=O)CC(c1ccc(F)cc1)n1c(C)ccc1C` (configuration not stated) gave KCNQ2 block inactive and KCNQ2 block baseline 1.8.
Screening CCOC(=O)c1c(NC(=O)CC2Nc3ccccc3NC2=O)sc(C)c1C (configuration not stated) returned KCNQ2 block inactive and KCNQ2 block baseline -0.52.
CC(C)=CC(=O)OCC(=O)Nc1cccc([N+](=O)[O-])c1 was read as KCNQ2 block inactive and KCNQ2 block baseline -0.83.
`COc1cccc(CN2CCC(Oc3ccc(C(=O)NCc4ccccn4)cc3)CC2)c1` gave KCNQ2 block inactive and KCNQ2 block baseline 0.08.
For CC(NC(=O)c1ccccc1)c1nc2ccccc2n1Cc1ccccc1F (configuration not stated) the results were KCNQ2 block inactive and KCNQ2 block baseline -0.13.
Screening O=C(O)C1C2C=CC(C2)C1C(=O)Nc1nccs1 (configuration not stated) returned KCNQ2 block inactive and KCNQ2 block baseline -1.2.
For O=C(Nc1ccc2c(c1)OCO2)C1CCN(Cc2cc3c(cc2O)OCO3)CC1 the results were KCNQ2 block inactive and KCNQ2 block baseline 0.83.
`Cc1cc(C)nc(SCCC(=O)N2CCOCC2)n1` gave KCNQ2 block inactive and KCNQ2 block baseline 0.01.
`CNC(=O)c1c(NC(NC(=O)c2ccco2)C(=O)c2ccc(Cl)cc2)sc2c1CCCC2` (configuration not stated) gave KCNQ2 block inactive and KCNQ2 block baseline -1.4.
Screening O=C(O)CSc1nc2ccccc2o1 returned KCNQ2 block inactive and KCNQ2 block baseline -1.9.
Screening Cc1ccc(C(=O)N2CCN(c3ccc([N+](=O)[O-])c(NCc4cccnc4)c3)CC2)cc1 returned KCNQ2 block inactive and KCNQ2 block baseline -0.17.
For CC12CCC(=O)N1C(C(=O)NCCN1C(=O)S/C(=C\c3ccc(F)cc3)C1=O)CS2 (configuration not stated) the results were KCNQ2 block inactive and KCNQ2 block baseline 0.88.
`CONC(=O)C1CCN(C(=O)OCc2ccccc2)CC1` gave KCNQ2 block inactive and KCNQ2 block baseline -0.08.
For O=[N+]([O-])c1ccccc1/C=N\N1CCN(Cc2ccccc2Cl)CC1 the results were KCNQ2 block inactive and KCNQ2 block baseline -0.43.
For Cn1c(C(=O)OC(C(=O)NC2CCCC2)c2cccnc2)cc2sccc21 (configuration not stated) the results were KCNQ2 block inactive and KCNQ2 block baseline 2.5.
Screening Brc1ccccc1C1Nc2cccc3cccc(c23)N1 returned KCNQ2 block inactive and KCNQ2 block baseline -2.8.
`COc1ccc(N(C)S(=O)(=O)c2cccc(C(=O)NC3CCC(C)CC3)c2)cc1` (configuration not stated) gave KCNQ2 block inactive and KCNQ2 block baseline 0.2.
For O=C(Cn1cc[n+](Cc2ccccc2)c1)c1ccc([N+](=O)[O-])cc1 the results were KCNQ2 block inactive and KCNQ2 block baseline 0.19.
For Cc1cc(C)cc(NC(=O)CCCSc2nc3ccccc3[nH]2)c1 the results were KCNQ2 block inactive and KCNQ2 block baseline 0.07.
For COc1ccc(N2CCN(c3ccc(NC(=O)C4CCCCC4)cc3C#N)CC2)cc1 the results were KCNQ2 block inactive and KCNQ2 block baseline -0.61.
For COc1ccc(S(=O)(=O)Nc2ccccc2C(=O)NC(C)C)cc1OC the results were KCNQ2 block inactive and KCNQ2 block baseline 0.62.
COc1ccc(NS(=O)(=O)c2cccc(C(=O)N3CCCC3)c2)cc1 was read as KCNQ2 block inactive and KCNQ2 block baseline 1.5.
For COc1ccc(S(=O)(=O)N2CCOC2CNC(=O)C(=O)NCCCn2ccnc2)cc1OC (configuration not stated) the results were KCNQ2 block inactive and KCNQ2 block baseline -0.85.
Screening CCN(C(=O)c1cc2cc(OC)ccc2oc1=O)c1ccccc1 returned KCNQ2 block inactive and KCNQ2 block baseline 0.25.
For CCN(CC(=O)Nc1ccccc1C(F)(F)F)C(=O)c1cc(S(=O)(=O)N2CCCCCC2)ccc1OC the results were KCNQ2 block inactive and KCNQ2 block baseline -0.29.
For COc1ccc(-c2cc(C(=O)NC3CCCCC3)no2)cc1OC the results were KCNQ2 block inactive and KCNQ2 block baseline 0.88.
CCc1ccccc1NC(=O)c1ccc(S(=O)(=O)N2CCCC2)cc1 was read as KCNQ2 block inactive and KCNQ2 block baseline -0.15.
Screening CCCCOC(=O)N1CCOCCOCCN(C(=O)OCCCC)CCOCCOCC1 returned KCNQ2 block inactive and KCNQ2 block baseline 0.57.
CO/N=C/c1ccc(Sc2ccccc2N)c([N+](=O)[O-])c1 was read as KCNQ2 block inactive and KCNQ2 block baseline -0.88.
O=[N+]([O-])c1cccc(-c2nnc(C34CC5CC(CC(C5)C3)C4)o2)c1 was read as KCNQ2 block inactive and KCNQ2 block baseline 1.4.
Cc1ccc(S(=O)(=O)Nc2ccc(N3CCOCC3)cc2)cc1 was read as KCNQ2 block inactive and KCNQ2 block baseline 0.1.
`Cc1cccc(NC(=O)COc2cccc3c2CCN(C)C3=O)c1C` gave KCNQ2 block inactive and KCNQ2 block baseline -0.85.
`COC(=O)C1=C(CN2CCc3ccccc32)NC(=O)NC1c1cc(C)ccc1C` (configuration not stated) gave KCNQ2 block inactive and KCNQ2 block baseline -0.04.
CC(NC(=O)c1cccs1)C(c1cccs1)N1CCN(Cc2ccccc2)CC1 (configuration not stated) was read as KCNQ2 block inactive and KCNQ2 block baseline 0.3.
Screening Cc1cccc(OCC(=O)NCCNC(=O)c2ccncc2)c1 returned KCNQ2 block inactive and KCNQ2 block baseline 1.2.
For COC(=O)C1=C(C)N(C)C(=O)NC1c1cc(Cl)cc(Cl)c1OC (configuration not stated) the results were KCNQ2 block inactive and KCNQ2 block baseline 0.35.

Arranged by count of non-hydrogen atoms (lowest first): six of the compounds above.
CO/N=C/c1ccc(Sc2ccccc2N)c([N+](=O)[O-])c1 was read as KCNQ2 block inactive and KCNQ2 block baseline -0.88.
Cc1ccc(S(=O)(=O)Nc2ccc(N3CCOCC3)cc2)cc1 was read as KCNQ2 block inactive and KCNQ2 block baseline 0.1.
O=[N+]([O-])c1cccc(-c2nnc(C34CC5CC(CC(C5)C3)C4)o2)c1 was read as KCNQ2 block inactive and KCNQ2 block baseline 1.4.
`Cc1cccc(NC(=O)COc2cccc3c2CCN(C)C3=O)c1C` gave KCNQ2 block inactive and KCNQ2 block baseline -0.85.
CC(NC(=O)c1cccs1)C(c1cccs1)N1CCN(Cc2ccccc2)CC1 (configuration not stated) was read as KCNQ2 block inactive and KCNQ2 block baseline 0.3.
For CCN(CC(=O)Nc1ccccc1C(F)(F)F)C(=O)c1cc(S(=O)(=O)N2CCCCCC2)ccc1OC the results were KCNQ2 block inactive and KCNQ2 block baseline -0.29.

(cont.)
For O=C(N/C(=C/c1cccc([N+](=O)[O-])c1)C(=O)N1CCCCCC1)c1cccs1 the results were KCNQ2 block inactive and KCNQ2 block baseline -0.73.
CCCCOc1ccc(C(=O)Oc2cc(C)[nH]c(=O)c2[N+](=O)[O-])cc1 was read as KCNQ2 block inactive and KCNQ2 block baseline -0.92.
N#CCC(=O)N/N=C/c1ccccc1Cl was read as KCNQ2 block inactive and KCNQ2 block baseline -0.38.
`CC(C)c1nnc(SCC(=O)N2CCc3ccccc32)n1N` gave KCNQ2 block inactive and KCNQ2 block baseline -1.8.
`Cc1ccc(NC(=O)CCSc2nnc3ccccn23)cc1` gave KCNQ2 block inactive and KCNQ2 block baseline 0.24.
`COc1ccc(-c2oc3ccc(N4CCOCC4)cc3c2C#CC2(O)CCCCC2)cc1` gave KCNQ2 block inactive and KCNQ2 block baseline -0.64.
`O=C(CCSCc1ccccc1F)NCc1ccc(F)cc1` gave KCNQ2 block inactive and KCNQ2 block baseline -1.1.
`Cn1c(=NC(=O)c2cccc([N+](=O)[O-])c2)sc2ccccc21` gave KCNQ2 block inactive and KCNQ2 block baseline -0.03.
`CC(C)N(Cc1nc(-c2ccccc2)no1)C(=O)COc1ccccc1` gave KCNQ2 block inactive and KCNQ2 block baseline -0.3.
Screening CCC1C(=NO)C(CC)C(c2ccccc2)NC1c1ccccc1 (configuration not stated) returned KCNQ2 block -9.4* and KCNQ2 block baseline 1.5*.
For COC(=O)c1cc(CNC(=O)c2cccc(Cl)c2)ccc1OC the results were KCNQ2 block inactive and KCNQ2 block baseline 0.57.
Screening COc1cc2c(cc1OC)CC(=O)NC=C2 returned KCNQ2 block inactive and KCNQ2 block baseline 0.45.
Cn1cccc1Cc1nnc(SCC(=O)Nc2ccc3c(c2)OCO3)n1-c1ccc(F)cc1 was read as KCNQ2 block inactive and KCNQ2 block baseline -0.5.
Screening O=C(CN(CC1CCCO1)C(=O)CNS(=O)(=O)c1ccc(Cl)cc1)NCc1ccccc1 (configuration not stated) returned KCNQ2 block inactive and KCNQ2 block baseline -0.85.
CN(Cc1ccc(OCC(O)CN2CCCCC2)cc1)Cc1ccnc2ccccc12 (configuration not stated) was read as KCNQ2 block inactive and KCNQ2 block baseline -1.3.
Screening Clc1ccc(OCCN2CCCCC2)c(Cl)c1 returned KCNQ2 block inactive and KCNQ2 block baseline 1.5.
For Cc1ccc(-n2nnnc2SCC(=O)NNC(=O)c2ccc([N+](=O)[O-])cc2)cc1 the results were KCNQ2 block inactive and KCNQ2 block baseline 1.
Screening COc1ccc(N(CC(=O)N2CCCCC2)S(=O)(=O)c2ccccc2)c(OC)c1 returned KCNQ2 block inactive and KCNQ2 block baseline 0.02.
COCCNc1oc(-c2ccco2)nc1S(=O)(=O)c1ccccc1 was read as KCNQ2 block inactive and KCNQ2 block baseline -1.2.
O=C(COC(=O)c1cc(=O)[nH]c(=O)[nH]1)Nc1cccc(S(=O)(=O)N2CCCCC2)c1 was read as KCNQ2 block inactive and KCNQ2 block baseline 2.4.
For COC(=O)C1=C(N)Oc2cc(C)[nH]c(=O)c2C1c1ccncc1 (configuration not stated) the results were KCNQ2 block inactive and KCNQ2 block baseline -0.27.
For COc1cccc(-n2c(=O)c3ccccc3n3c(=S)[nH]nc23)c1 the results were KCNQ2 block inactive and KCNQ2 block baseline 0.13.
